Compound activity deposited in PubChem by several laboratories.
Sa RN4220 lethal: S. aureus RN4220 growth inhibition. OD600, 16 h. inhibition, % (test concentration not listed). hit rate 0.33% among 330,000. AID 1259311;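 active means z-score of -3 or lower and OD600 up to 0.18 on both plates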;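 further: plate controls were untreated cells for no effect and reference antibiotic for full effect; stock transfer was 100 nL into about 80 µL; one replicate is shown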
Autofluor counter: flagged as autofluorescent in microsphere protease counterscreen. compound autofluorescence counterscreen, microsphere flow cytometry; hits give high values. fluorescence intensity (concentration not given with the values). hit rate 3.1% among 360,000;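 active means at least 3 SD above the mean of all compounds, about 16000 in these data; inconclusive means too few beads counted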;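 further: 100 nL of 1 mM stock went into each well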
ugtP null kill: kills S. aureus RN4220 lacking UgtP; S. aureus RN4220 ugtP deletion, OD600 growth, 16 h; some inactives read as strong as hits; growth inhibition, % (concentration not given with the values); hit rate 0.54% among 330,000; AID 1259309;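 active means z-score under -3 and OD600 up to 0.15 on both plates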;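 further: plate controls were untreated wells for no effect and antibiotic for full effect; wells of about 80 µL received 100 nL stock; the first replicate is given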
PrP 5UTR inh: inhibition of PrP 5' UTR reporter expression; hit rate 0.35% among 340,000; inhibition, % (test concentration not listed); cell-based PrP 5' UTR mRNA reporter, plate reader;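 active means every replicate at 50% or more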;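 further: 0 = median of the neutral control wells; tested in H4 reporter cells; numbers are from one replicate; inactives centre near -14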
Mtb hypoxia rep: reduces hypoxia-regulated biosensor signal in M. tuberculosis. M. tuberculosis hypoxia-regulated fluorescent reporter, fluorescence. fluorescence inhibition, % (test concentration not listed). hit rate 0.1% among 300,000. AID 1159583;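 active means 35 to 45% if threefold the growth effect, above 45% if 1.5-fold the growth effect; inactive means the rest, general growth blockers included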;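 further: wells of about 50 µL received 100 nL stock; 0% = vehicle wells and 100% = reference inhibitor wells; whole bacteria with a GFP reporter of the hypoxia response; strong numbers were not always called active; many hits fall short of the cut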
BJeLR lethal: kills HRASV12-expressing BJeLR cells | BJeLR (HRASV12) viability, CellTiter-Glo ATP luminescence, 48 h; reference of the scale not given here | inhibition, % (concentration not given with the values) | hit rate 0.17% among 300,000;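 active means replicate mean above 50%; inconclusive means above 50% but judged a plate artefact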;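 further: 50 nL library stock added to about 25 µL; numbers are from one replicate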
Mtb hypoxia rep growth: recorded beside Mtb hypoxia rep, whose call it bears; growth inhibition, %; measured here: M. tuberculosis growth (absorbance);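 0% = vehicle and 100% = reference antibiotic; read after six days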
* marks the source's active call; other numbers are inactive results; & = joins results of further samples.

Results for CCc1nc(N2CCCCC2C)c2oc3ccccc3c2n1 (stereo not drawn) ?
Sa RN4220 lethal: 30; Autofluor counter: 19411*; ugtP null kill: 5; PrP 5UTR inh: -5; Mtb hypoxia rep: 7; BJeLR lethal: 6; Mtb hypoxia rep growth: 12

What do the screens show for `CCCC(=O)NC(Nc1ccc(S(=O)(=O)Nc2ncccn2)cc1)(C(=O)OCC)C(F)(F)F` (stereo not drawn)?
Sa RN4220 lethal: 3.4; Autofluor counter: 3777; ugtP null kill: 7; PrP 5UTR inh: -20; Mtb hypoxia rep: 5; BJeLR lethal: 0; Mtb hypoxia rep growth: 10

What do the screens show for `FC(F)(F)C(F)(F)c1nnc2ccc(-n3ccnc3)nn12`?
Sa RN4220 lethal: 11; Autofluor counter: 4758; ugtP null kill: 7; PrP 5UTR inh: 9; Mtb hypoxia rep: 11; BJeLR lethal: 11; Mtb hypoxia rep growth: 12

Results for COc1ccc(C(=O)c2sc3nc(C)cc(-c4cccs4)c3c2N)cc1 ?
Sa RN4220 lethal: 1.3; Autofluor counter: 3055; ugtP null kill: -4; PrP 5UTR inh: -23; Mtb hypoxia rep: 16; BJeLR lethal: 0; Mtb hypoxia rep growth: 6

What do the screens show for `COc1cccc(NC(=O)CCS(=O)(=O)c2cc3c(cc2Cl)NC(=O)CO3)c1`?
Sa RN4220 lethal: 3.8; Autofluor counter: 5623; ugtP null kill: 1; PrP 5UTR inh: -7; Mtb hypoxia rep: -3; BJeLR lethal: -10; Mtb hypoxia rep growth: -1

Results for CC1CCN(S(=O)(=O)c2ccc(NC(=O)CN3CCN(c4ccccc4)CC3)cc2)CC1 ?
Sa RN4220 lethal: 5.6; Autofluor counter: 6150; ugtP null kill: 0; PrP 5UTR inh: -11; Mtb hypoxia rep: 5; BJeLR lethal: -14; Mtb hypoxia rep growth: 7

What do the screens show for `COc1ccc(C=NNC(=O)c2ccncc2)cc1COc1ccc(NC(C)=O)cc1`?
Sa RN4220 lethal: -1.6; ugtP null kill: 2

What do the screens show for `CC(NCc1ccccc1Cl)C(=O)Nc1ccc(C#N)cc1` (stereo not drawn)?
Sa RN4220 lethal: 2.1; Autofluor counter: 4658; ugtP null kill: 4; PrP 5UTR inh: -10; Mtb hypoxia rep: 6; BJeLR lethal: 9; Mtb hypoxia rep growth: 4

Results for O=C(NC(c1ccc(Cl)cc1)c1c(O)ccc2ccccc12)c1ccccc1 (stereo not drawn) ?
Sa RN4220 lethal: 71; Autofluor counter: 7699; ugtP null kill: 70; PrP 5UTR inh: -3; Mtb hypoxia rep: 2; Mtb hypoxia rep growth: 7

How did COc1cc(C=NNC(=O)c2cc[n+]([O-])cc2)ccc1O do in these assays?
Sa RN4220 lethal: 4.9; ugtP null kill: 2; Mtb hypoxia rep: -12; Mtb hypoxia rep growth: -2

Results for CCc1c(C)[nH]c2nc3ccccc3n2c1=O ?
Sa RN4220 lethal: 3.2; Autofluor counter: 9045; ugtP null kill: -12; PrP 5UTR inh: -16; Mtb hypoxia rep: 3; BJeLR lethal: 0; Mtb hypoxia rep growth: 0

Results for O=C(NCc1ccccc1)C1=CC(c2csc3ccccc23)CC(OCCCCO)O1 (stereo not drawn) ?
Sa RN4220 lethal: 0.3&1.1; ugtP null kill: 4&3; Mtb hypoxia rep: 12&10; Mtb hypoxia rep growth: 7&4

How did COc1ccc(Br)cc1C(=O)Nc1nnn(C)n1 do in these assays?
Sa RN4220 lethal: 3.9; Autofluor counter: 2833; ugtP null kill: 5; PrP 5UTR inh: -12; Mtb hypoxia rep: 11; BJeLR lethal: 12; Mtb hypoxia rep growth: 8

What do the screens show for `S=C(Nc1ccccc1)N1CCN(C(=S)c2ccccc2)CC1`?
Sa RN4220 lethal: 7.6; Autofluor counter: 3972; ugtP null kill: 0; PrP 5UTR inh: -9; Mtb hypoxia rep: 5; BJeLR lethal: 0; Mtb hypoxia rep growth: 2

Results for CC1Cc2ccccc2N1C(=O)C1CCN(S(=O)(=O)Cc2ccccc2)CC1 (stereo not drawn) ?
Sa RN4220 lethal: 2.4; Autofluor counter: 2733; ugtP null kill: 5; PrP 5UTR inh: -31; BJeLR lethal: 8

What do the screens show for `CC(=O)OC1OCCOC1NC(=S)Nc1ccc(C)cc1` (stereo not drawn)?
Sa RN4220 lethal: 2.7; Autofluor counter: 4318; ugtP null kill: -9; PrP 5UTR inh: -33; Mtb hypoxia rep: 1; BJeLR lethal: 1; Mtb hypoxia rep growth: -2

Results for CCc1nc(SCC(=O)NCCc2ccccc2)n[nH]1 ?
Sa RN4220 lethal: -2.6; Autofluor counter: 3454; ugtP null kill: 2; PrP 5UTR inh: -19; BJeLR lethal: -7

What do the screens show for `CCOC(=O)CSc1nc2sc(C(=O)O)c(C)c2c(=O)[nH]1`?
Sa RN4220 lethal: 5.8; Autofluor counter: 5100; ugtP null kill: 11; PrP 5UTR inh: -26; Mtb hypoxia rep: -4; BJeLR lethal: -4; Mtb hypoxia rep growth: 6

How did CC1CCC(NC(=O)c2ccc(COc3ccccc3)o2)CC1 (stereo not drawn) do in these assays?
Sa RN4220 lethal: 1.3; Autofluor counter: inconclusive; ugtP null kill: 12; PrP 5UTR inh: -10; Mtb hypoxia rep: -4; BJeLR lethal: -4; Mtb hypoxia rep growth: 0

How did COCCCNC(=S)N1CCN(c2nc(C)nc3sc4c(c23)CCCC4)CC1 do in these assays?
Sa RN4220 lethal: -6.2; Autofluor counter: 3880; ugtP null kill: 22; PrP 5UTR inh: -22; Mtb hypoxia rep: 16; BJeLR lethal: -5; Mtb hypoxia rep growth: 17

2 compounds drawn at random from those above:
What do the screens show for `CCOC(=O)CSc1nc2sc(C(=O)O)c(C)c2c(=O)[nH]1`?
Sa RN4220 lethal: 5.8; Autofluor counter: 5100; ugtP null kill: 11; PrP 5UTR inh: -26; Mtb hypoxia rep: -4; BJeLR lethal: -4; Mtb hypoxia rep growth: 6

How did CC1CCC(NC(=O)c2ccc(COc3ccccc3)o2)CC1 (stereo not drawn) do in these assays?
Sa RN4220 lethal: 1.3; Autofluor counter: inconclusive; ugtP null kill: 12; PrP 5UTR inh: -10; Mtb hypoxia rep: -4; BJeLR lethal: -4; Mtb hypoxia rep growth: 0

(further entries)
How did Cc1c(C(=O)Nc2ccc(F)cc2)oc2ccc(S(=O)(=O)N3CC(C)CC(C)C3)cc12 (stereo not drawn) do in these assays?
Sa RN4220 lethal: -13; Autofluor counter: 6646; ugtP null kill: -11; PrP 5UTR inh: -4; Mtb hypoxia rep: -3; BJeLR lethal: 0; Mtb hypoxia rep growth: -1

How did COc1cccc(-c2cc(C(=O)NCCN3CCOCC3)no2)c1 do in these assays?
Sa RN4220 lethal: 5.8; Autofluor counter: 17375*; ugtP null kill: 5; PrP 5UTR inh: -7; Mtb hypoxia rep: 4; BJeLR lethal: -3; Mtb hypoxia rep growth: 8

Results for COc1ccc(OCCC(=O)Nc2nccs2)cc1 ?
Sa RN4220 lethal: 2.6; Autofluor counter: 3414; ugtP null kill: -2; PrP 5UTR inh: -12; Mtb hypoxia rep: 4; BJeLR lethal: -2; Mtb hypoxia rep growth: 1

How did Cc1ccc(NC(=S)Nc2cccc3cnccc23)cc1 do in these assays?
Sa RN4220 lethal: 3.1; Autofluor counter: 4436; ugtP null kill: 6; PrP 5UTR inh: -27; Mtb hypoxia rep: 16; BJeLR lethal: 1; Mtb hypoxia rep growth: 7

How did O=C(OCC(=O)N1CCCC1)c1c(Cl)cccc1Cl do in these assays?
Sa RN4220 lethal: 3.7; Autofluor counter: 5367; ugtP null kill: 11; PrP 5UTR inh: -17; Mtb hypoxia rep: 14; BJeLR lethal: -20; Mtb hypoxia rep growth: 14

How did O=C(C1=CC(C2CCCCC2)CC(OCc2ccc(CO)cc2)O1)N1CCN(Cc2ccc3c(c2)OCO3)CC1 (stereo not drawn) do in these assays?
Sa RN4220 lethal: 5.4&11; ugtP null kill: 10&-1; Mtb hypoxia rep: 2&2; Mtb hypoxia rep growth: 3&3

Results for CCc1ccc(NS(=O)(=O)c2ccc(OC)c3ncccc23)cc1 ?
Sa RN4220 lethal: 0.6; Autofluor counter: 5889; ugtP null kill: 14; PrP 5UTR inh: -24; Mtb hypoxia rep: 16; BJeLR lethal: -9; Mtb hypoxia rep growth: 4

Results for C=CCNC(=O)c1c(O)c2cccc3c2n(c1=O)CCC3 ?
Sa RN4220 lethal: 5.2; Autofluor counter: 3967; ugtP null kill: 4; PrP 5UTR inh: -16; Mtb hypoxia rep: 6; BJeLR lethal: -8; Mtb hypoxia rep growth: 11

What do the screens show for `CCn1ncc2c1C(=O)NC1c3ccccc3C(=O)N21` (stereo not drawn)?
Sa RN4220 lethal: 3.5; Autofluor counter: 9424; ugtP null kill: 3; PrP 5UTR inh: -30; Mtb hypoxia rep: 6; BJeLR lethal: -6; Mtb hypoxia rep growth: 11

How did O=C(CN1c2cccc3cccc(c23)S1(=O)=O)Nc1c(F)c(F)c(F)c(F)c1F do in these assays?
Sa RN4220 lethal: 0.8; Autofluor counter: 2787; ugtP null kill: 2; PrP 5UTR inh: -2; Mtb hypoxia rep: 1; Mtb hypoxia rep growth: 6

Structures above that contain an aryl thioether with sulfur outside any ring (two):
Results for CCc1nc(SCC(=O)NCCc2ccccc2)n[nH]1 ?
Sa RN4220 lethal: -2.6; Autofluor counter: 3454; ugtP null kill: 2; PrP 5UTR inh: -19; BJeLR lethal: -7

What do the screens show for `CCOC(=O)CSc1nc2sc(C(=O)O)c(C)c2c(=O)[nH]1`?
Sa RN4220 lethal: 5.8; Autofluor counter: 5100; ugtP null kill: 11; PrP 5UTR inh: -26; Mtb hypoxia rep: -4; BJeLR lethal: -4; Mtb hypoxia rep growth: 6

The results go on.
How did O=C(c1cccc(Cl)c1)N1CCN(CCCc2ccccc2)CC1 do in these assays?
Sa RN4220 lethal: 1.9; Autofluor counter: 3638; ugtP null kill: 4; PrP 5UTR inh: -12; Mtb hypoxia rep: -2; BJeLR lethal: -5; Mtb hypoxia rep growth: 10

What do the screens show for `CC(=O)N(C(C)=O)n1c(C)nc2sc3c(c2c1=O)CCCC3`?
Sa RN4220 lethal: 0.6; Autofluor counter: 2075; ugtP null kill: -1; PrP 5UTR inh: -15; Mtb hypoxia rep: 5; BJeLR lethal: -11; Mtb hypoxia rep growth: 6

What do the screens show for `CC1=C(C(=O)OCC2CCCO2)C(c2coc3ccc(Cl)cc3c2=O)C2=C(CCCC2=O)N1` (stereo not drawn)?
Sa RN4220 lethal: 4.0; Autofluor counter: 4268; ugtP null kill: 1; PrP 5UTR inh: -14; Mtb hypoxia rep: 15; BJeLR lethal: -2; Mtb hypoxia rep growth: -2

How did CC(C)(C)SCCNC(=O)c1cccc([N+](=O)[O-])c1 do in these assays?
Sa RN4220 lethal: 4.5; Autofluor counter: 2026; ugtP null kill: 2; PrP 5UTR inh: -20; Mtb hypoxia rep: 8; BJeLR lethal: 3; Mtb hypoxia rep growth: 1

Results for COc1ccc(N)c2c1C(=O)c1ccccc1C2=O ?
Sa RN4220 lethal: 4.7; Autofluor counter: 7470; ugtP null kill: 16; PrP 5UTR inh: -28; Mtb hypoxia rep: 20; BJeLR lethal: 17; Mtb hypoxia rep growth: 6

Results for O=C(Nc1cccc(S(=O)(=O)NC2=NCCC2)c1)c1cc(=O)[nH]c2ccccc12 ?
Sa RN4220 lethal: -1.4; Autofluor counter: inconclusive; ugtP null kill: 2; PrP 5UTR inh: -7; Mtb hypoxia rep: 2; Mtb hypoxia rep growth: 0

How did COc1ccc(NC(=O)CSCC(=O)N(C)Cc2ccc(Cl)c(Cl)c2)cc1 do in these assays?
Sa RN4220 lethal: 1.8; Autofluor counter: 3514; ugtP null kill: 0; PrP 5UTR inh: -31; Mtb hypoxia rep: 10; Mtb hypoxia rep growth: 5

What do the screens show for `Cc1ccc(C=NNC(=O)CCn2nc(C)cc2C)c(C)c1`?
Sa RN4220 lethal: 0.7; ugtP null kill: 3; Mtb hypoxia rep: 5; Mtb hypoxia rep growth: 7
